Screens as filed in PubChem BioAssay.
StopGo FLuc = lowers the firefly signal of an FMDV 2A StopGo reporter. Potency, µM (top dose mostly 57.5 µM), for inactives: at the top dose signal change, negative = less light. AID 1745856. 120,000 tested, 0.23% active. HEK cells with a luciferase reporter of 2A StopGo recoding; active = well fitted falling curve with a large enough effect; inconclusive = small, poorly fitted or top-dose-only effect; inactive = no such curve, though single readings can be large or run the other way; further: nearly all actives have a fitted effect of over 60% in size; overnight with compound
2A Renilla = lowers the Renilla signal of an FMDV 2A StopGo reporter. AID 1745857. 120,000 tested, 0.32% active. Potency, µM (top dose mostly 57.5 µM), for inactives: at the top dose signal change, negative = less light. HEK cells with a luciferase reporter of 2A StopGo recoding; active means well fitted falling curve with a large enough effect; inconclusive means small, poorly fitted or top-dose-only effect; inactive means no such curve, though single readings can be large or run the other way; further: nearly all actives have a fitted effect of over 55% in size; overnight with compound
Active calls of the source: *; ? = inconclusive; & = joins results of further samples; [ ] = dose if it differs, or a comment. On the % scale 0 is the no-effect control and ±100 the full control effect; potency means the concentration at half of the fitted maximal effect.

SMILES	StopGo FLuc	2A Renilla
COc1ccc(-c2ocnc2C(=O)Nc2ccc3c(c2)OCCO3)cc1	166.4%[activator]	53.9%[activator]
COc1cccc(NC(=O)Cn2c(=O)ccc3cc(S(=O)(=O)N4CCC(C)CC4)ccc32)c1	12.6%	29.9%
Cn1c(=O)c2c(nc(NC3CCCCC3)n2Cc2c(F)cccc2Cl)n(C)c1=O	8.6%	20.1%
Cc1ccc(NC(=O)c2sc(-n3nc(C)c(Cc4ccc5c(c4)OCO5)c3C)nc2C)cc1Cl	-7.6%	-11.0%
Cc1oc2ncn(C)c(=O)c2c1C(=O)N(C)c1ccccc1F	-6.4%	-12.1%
Cc1cc2[nH]c(=O)c(=O)[nH]c2cc1S(=O)(=O)NCc1ccc(F)cc1	10.2%	-9.1%
O=C(NCCCc1ccccc1)c1nn(-c2ccccc2)nc1CO	-12.4%	?
CN(C(=O)CNC(=O)NC(Cc1c[nH]c2ccccc12)C(=O)O)c1ccccc1 (stereo not given)	9.7%	-11.6%
O=C(CSc1ccccc1)NCc1ccc2c(c1)CCN2C(=O)c1ccc(Cl)cc1	0.0%	-19.5%
Cc1ccccc1Nc1nc(N)c(C(=O)c2ccccc2Cl)s1	0.0%	22.8%
O=C(OCC(=O)C12CC3CC(CC(C3)C1)C2)c1ccc([N+](=O)[O-])s1	-1.2%	8.5%
Cc1ccc(C2(c3ccccc3)NC(=O)N(Cc3ncc(-c4ccccc4)o3)C2=O)cc1C (stereo not given)	?	?
CCNCc1ccc(-c2cccc(Cl)c2)o1	34.9%[activator]	-3.3%
CC(C)N(C(=O)Cn1c(CN2CCOCC2)nc2ccccc21)c1ccccc1	-11.1%	-16.4%
CCOCCCNC1CC(C)CC(C)(C)C1 (stereo not given)	-6.8%	9.5%
N#CC(Cc1cccnc1)C(=O)Nc1ccc(F)cc1 (stereo not given)	9.5%	39.8%[activator]
O=C(Cc1scnc1-c1cccs1)NCCc1ccc(Cl)cc1	-14.7%	-9.2%
CSc1cccc(NC(=O)CN(C)S(=O)(=O)c2ccc3c(c2)CCCN3C(C)=O)c1	-21.3%	-1.9%
CC(C)c1ccc(/C=N/O)cc1	15.9%	0.7%
O=C(c1ccc2[nH]ccc2c1)N1CCN(Cc2ccccc2)CC1	51.1%[activator]	15.6%

Record cards (already shown).
Shown for CCOCCCNC1CC(C)CC(C)(C)C1 (stereo not given) : StopGo FLuc = -6.8%; 2A Renilla = 9.5%
Shown for O=C(CSc1ccccc1)NCc1ccc2c(c1)CCN2C(=O)c1ccc(Cl)cc1 : StopGo FLuc = 0.0%; 2A Renilla = -19.5%
Shown for Cc1ccc(NC(=O)c2sc(-n3nc(C)c(Cc4ccc5c(c4)OCO5)c3C)nc2C)cc1Cl : StopGo FLuc = -7.6%; 2A Renilla = -11.0%

(listing goes on)
SMILES	StopGo FLuc	2A Renilla
CC(=O)C1(C)CC2(CC(COCC(C)C)OC2=O)C(=O)O1 (stereo not given)	4.3%	-19.6%
CCN(CC)CC(=O)NC(=O)NC1CCCCC1	30.7%	8.9%
COc1ccccc1NCc1nnc2n1CCCCC2	-3.7%	1.3%
CC(=O)c1cccc(-n2c(CCC(=O)O)ccc2-c2ccccc2)c1	3.5%	-2.0%
COc1ccc(/C=C2/C(=O)N(C)C(=S)N2C)cc1	92.9%[activator]	-2.8%
CC1(C)CC(NC(=O)c2cc3cc(Br)ccc3oc2=O)CC(C)(C)N1	-5.4%	-12.2%
CC(=O)Nc1ccc(S(=O)(=O)Nc2c(NC3CCCC3)c3ccccc3oc2=O)cc1	34.8%[activator]	58.5%[activator]
O=c1cc(-c2ccc(F)cc2)nc(SCc2nc(-c3cccc(Cl)c3)no2)[nH]1	-15.7%	-12.3%
CCOC(=O)c1cnc2c(C)cc(C)cc2c1Nc1ccc(N2CCOCC2)cc1	-8.9%	-5.4%
CCOc1ccc2nc(NC(=O)CCNC(=O)c3ccccc3Cl)sc2c1	247.4%[activator]	24.3%
O=C(/C=C/c1ccccc1Cl)OCC(=O)c1ccc(C2CCCCC2)cc1	-7.5%	-0.2%
Cn1cnc(S(=O)(=O)N2CCCC(C(=O)NCc3ccc(F)cc3)C2)c1 (stereo not given)	-10.1%&-2.5%	3.4%&-6.1%
Cc1cc(Cl)ccc1-n1ncc2c(NCC3CCCO3)ncnc21 (stereo not given)	39.2%[activator]	-22.8%
COc1ccc(Nc2ncc(C(=O)N3CCN(c4ccccc4OC)CC3)c3ccccc23)cc1	16.3%	-11.5%
CCS(=O)(=O)c1ncc(Cl)c(C(=O)NCc2ccc(OC)cc2)n1	?	-9.6%
Cc1ccc(Cl)cc1NC(=O)CCn1cnc2ccccc2c1=O	-15.4%	-12.5%
O=C(c1ccccc1Cl)N1CCC(c2nc3ccccc3s2)CC1	?	?
COc1ccc2c(c1)c1c(c(=O)n(-c3cccc(C)c3)c(=O)n1CC(=O)NCC1CCCO1)n2C (stereo not given)	-7.4%	-12.3%
CC(C)c1ccc(CNCC2CCCO2)cc1 (stereo not given)	18.2%	10.4%
Cn1c(NCc2ccccc2Cl)nc2c1c(=O)n(Cc1ccccc1F)c(=O)n2C	-6.9%	-9.2%

Part of the list above in order of count of non-hydrogen atoms, low to high:
SMILES	StopGo FLuc	2A Renilla
Cc1ccc(Cl)cc1NC(=O)CCn1cnc2ccccc2c1=O	-15.4%	-12.5%
O=C(/C=C/c1ccccc1Cl)OCC(=O)c1ccc(C2CCCCC2)cc1	-7.5%	-0.2%
COc1ccc2c(c1)c1c(c(=O)n(-c3cccc(C)c3)c(=O)n1CC(=O)NCC1CCCO1)n2C (stereo not given)	-7.4%	-12.3%

Next section.
SMILES	StopGo FLuc	2A Renilla
O=C(COc1ccc(Cl)cc1Cl)NCCc1csc(-c2cccnc2)n1	-4.8%	-8.6%
COc1ccccc1CN(Cc1ccco1)c1cnc(S(C)(=O)=O)nc1C(=O)Nc1ccccc1	-6.0%	9.6%
N#CC1=C2SCN(C3CCCCC3)CN2C(=O)CC1c1ccc(Br)cc1 (stereo not given)	-21.3%	-5.8%
CC(C)c1cc(NCc2cccnc2)n2ncc(-c3ccccc3)c2n1	169.8%[activator]	-18.0%
Cc1ccccc1NC(=O)Cn1nc(C)c2ccccc2c1=O	0.5%	-3.1%
O=S(=O)(Nc1nc2ccccc2nc1Nc1cccc(F)c1)c1cccc(Cl)c1	3.55µM*	3.98µM*
COc1cccc(CNC(=O)c2sc(-c3ccc(OC)c(OC)c3)nc2C)c1	0.0%	8.0%
Cc1cccc2c(C(=O)NCCc3ccccc3)cc(-c3cccnc3)nc12	20.0%	19.5%
Cc1noc(C)c1S(=O)(=O)N(CC(=O)NCc1ccccc1)c1ccc(C(C)C)cc1	-22.5%	-3.3%
CC(c1cccs1)N(C)C(=O)C1CCCC1 (stereo not given)	0.2%	8.8%
CCn1nc(C(=O)OCC(=O)Nc2ccc(Cl)c(C(F)(F)F)c2)c2ccccc2c1=O	-11.7%	-12.0%
CN(CC(=O)NC(C)(C)C)Cc1ccc(C#N)cc1	3.5%	4.2%
CCCSCCCNC(=O)c1sc2nc(C)cc(C)c2c1-n1cccc1	-0.4%	-12.6%
CCCN(CCC)c1ccc(NS(=O)(=O)c2cccs2)cc1C(=O)O	13.3%	-2.9%
COC(=O)[C@@H](CC(C)C)NC(=O)Nc1cccc(OC)c1	0.0%	7.3%
Cc1ccc2c(C)c(C(=O)O)oc2c1	40.8%[activator]	9.6%
Cc1cc(=O)oc2cc(OCC(=O)N(C)C)c(Cl)cc12	-3.1%	-4.1%
O=c1cc(CN2CCN(CCO)CC2)c2cc(O)ccc2o1	-4.1%	-7.1%
CC1CCN(Cc2c(O)ccc3c(=O)c(-c4ccc(Cl)cc4)c(C(F)(F)F)oc23)CC1	-16.1%	-10.8%
CCOc1ccc(CN(CCc2ccc3c(c2)OCO3)Cc2cc(OC)cc(OC)c2)cc1	-18.3%	-2.7%
O=C(NCCc1ccc(Cl)cc1)C1CCN(S(=O)(=O)c2ccc3[nH]ccc3c2)CC1	-21.9%	2.4%
CCc1ccc(Cn2nnc3c(=O)[nH]c(C4CCCN(C(=O)c5cccc(Cl)c5)C4)nc32)cc1 (stereo not given)	-5.0%	0.4%
Cc1ccccc1OC(=O)c1cc(-c2ccc3c(c2)OCCO3)on1	-1.1%	-7.9%
CCNc1nc(-c2cc(C)n(-c3cc(C)on3)c2C)cs1	20.1%	-8.7%
CCOc1ccc(C2CC(c3ccccc3NS(C)(=O)=O)=NN2C(C)=O)cc1 (stereo not given)	17.1%	-2.0%
CCC1CCCCN1CCCNC(=O)c1c(O)nc2c(C)cccn2c1=O (stereo not given)	-20.0%	-15.7%
Cc1ccc(-c2nc(C#N)c(NCC(C)C)o2)cc1	205.0%[activator]	31.5%
COc1cc(NC(=O)c2cn(C3CCCC3)c(=O)c3c2c2ccccc2n3C)cc(OC)c1OC	7.7%	2.6%
Cc1nn(CC(=O)N2CCc3ccccc32)c(C)c1S(=O)(=O)N1CCCC(C(=O)NC2CC2)C1 (stereo not given)	-4.0%	-8.3%
Cc1cc2oc(C(=O)Nc3ccccc3C(F)(F)F)cc(=O)c2cc1C	-13.3%	-9.8%
COc1cc(OC)c(C2C3=C(CC(C)(C)CC3=O)Nc3ccccc3N2C(C)=O)cc1OC (stereo not given)	21.5%	9.2%
Cc1ccc(C(=O)Nc2cccc3c2CCCC3)cc1C	0.0%	15.6%
Cn1c(SCc2ccc(F)cc2)nc2ccc(C(=O)NCc3ccc(Cl)cc3)cc21	-17.9%	14.5%
O=C(NCCS(=O)(=O)N1CCN(c2ccccc2)CC1)C1CC(=O)N(c2ccc(F)cc2)C1 (stereo not given)	-8.8%	-5.5%
COc1ccc(C(CC(=O)NCc2ccco2)Sc2n[nH]c(-c3ccc(F)cc3)n2)cc1 (stereo not given)	3.5%	187.0%[activator]
CCCNC(=O)NC(=O)CN(Cc1cccs1)C1CC1	3.1%	26.9%
COC(=O)c1ccc(NC(=O)Cc2coc3cc(C)ccc23)cc1	28.2%	55.1%[activator]
O=C(CCC(=O)c1ccc2c(c1)OCCCO2)NC1CCCCCC1	90.9%[activator]	-2.5%
O=C(c1ccc(-c2ccccc2)cc1)C(O)c1ccc(-c2ccccc2)cc1 (stereo not given)	-3.9%	9.1%
C#CCOc1ccc(CCN)cc1	10.4%	6.6%
Cc1ccc2c(=O)c(C(=O)c3ccccc3)cn(CC(=O)Nc3ccc(C)c(Cl)c3)c2n1	-10.6%	-6.3%
c1ccc2cc(-c3ccn[nH]3)ccc2c1	222.3%[activator]	4.1%
Cc1ccccc1CNC(=O)c1ccc(CN2CC(=O)N3CCCCC3C2=O)cc1 (stereo not given)	-1.6%	28.3%
N#CCSc1nnc(-c2ccccc2)n1-c1ccc(Cl)cc1	0.0%	16.5%
O=C(Nc1ccccc1C(=O)OCC(=O)N1CCC(Cc2ccccc2)CC1)c1ccco1	4.2%	-11.4%
CC(=O)N1c2ccccc2C(=O)C1N1CCN(c2cccc(Cl)c2)CC1 (stereo not given)	-12.9%	-6.9%
Cn1c(CNC(=O)CSc2n[nH]c(-c3ccccc3)n2)nc2ccccc21	-22.8%	33.8%[activator]
COCCCN1C(=O)c2[nH]nc(-c3ccccc3O)c2C1c1ccc(OC)cc1 (stereo not given)	-12.8%	-8.5%
O=C(c1ccc(-n2cccc2)cc1)N1CCN(S(=O)(=O)c2cc(F)ccc2F)CC1	-7.5%	-8.3%
CC(C)(CNC(=O)CCNC(=O)C1CCCC1)c1ccc(Br)cc1	-15.3%	4.2%
N#CCCC(C#N)Cn1nc(-c2ccccc2)c2ccccc2c1=O (stereo not given)	-9.2%	-6.9%
CC(NC(=O)c1cccc(NC(=O)c2nsc3ccccc23)c1)c1ccccc1 (stereo not given)	127.3%[activator]	60.0%[activator]
O=C(NCCS(=O)(=O)N1CCN(c2ccccc2F)CC1)c1ccccc1Br	11.0%	20.5%
Cc1ccc(C)c(S(=O)(=O)n2nc(C)c(S(=O)(=O)N3CCC(C)CC3)c2C)c1	-1.2%	49.7%[activator]
Cc1ccc(CSCCC(=O)N2CCN(c3cc(C)ccc3C)CC2)cc1	-44.5%	?
Cc1cccc(C(=O)NCc2ccco2)c1C	12.8%	0.1%
O=C(NCc1ccc2c(c1)OCO2)c1nn(-c2ccccc2)c(=O)c2ccccc12	30.8%[activator]	68.6%[activator]
CCOC(=O)c1cccc(NC(=O)CCS(=O)(=O)c2ccc3c(c2)CCN3C(=O)CC)c1	-6.4%	-3.0%
COc1ccc2c(C)c(CC(=O)NCc3ccccc3Cl)c(=O)oc2c1	17.9%	12.7%
COc1ccc(-n2c(SCC(=O)N3CCc4ccccc43)nc3c(c2=O)SCC3)cc1	-23.1%	-16.0%

(listing goes on)
SMILES	StopGo FLuc	2A Renilla
O=C(CCl)N(CCc1ccccc1)Cc1cccs1	?	?
CCOC(=O)c1[nH]c2c(c1Cc1ccccc1C)C(=O)CC(c1cc(OC)ccc1OC)C2 (stereo not given)	-12.7%	-10.2%
CCN(CC)c1ccc(NC(=O)C2CCCN(S(=O)(=O)c3ccc4c(c3)oc(=O)n4C)C2)c(C)c1 (stereo not given)	-11.0%	-10.1%
O=C(CC1C(=O)N(c2ccccc2)C(=O)N1CCc1cccs1)Nc1ccc(Cl)cc1 (stereo not given)	26.6%	416.3%[activator]
